Assay outcomes deposited in PubChem BioAssay by several laboratories.
PABP FP inh: PABP poly(A) RNA binding inhibitors, primary screen, biochemical, fluorescence polarization, uHTS; inhibition, % at 35 µM; 290,000 tested, 1% active; AID 2014, 2009;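 active means 50% or more with normal probe brightness, or confirmed in later tests; about a fifth of its hits are not listed in these tables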;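 further: calls also rest on retests at 20 µM and on dose response follow-up; controls were probe without protein and protein plus probe with vehicle; some compounds called inactive have numbers as strong as hits; many hits fall short of the cut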
Target sequence (P11940 whole entry, looked up): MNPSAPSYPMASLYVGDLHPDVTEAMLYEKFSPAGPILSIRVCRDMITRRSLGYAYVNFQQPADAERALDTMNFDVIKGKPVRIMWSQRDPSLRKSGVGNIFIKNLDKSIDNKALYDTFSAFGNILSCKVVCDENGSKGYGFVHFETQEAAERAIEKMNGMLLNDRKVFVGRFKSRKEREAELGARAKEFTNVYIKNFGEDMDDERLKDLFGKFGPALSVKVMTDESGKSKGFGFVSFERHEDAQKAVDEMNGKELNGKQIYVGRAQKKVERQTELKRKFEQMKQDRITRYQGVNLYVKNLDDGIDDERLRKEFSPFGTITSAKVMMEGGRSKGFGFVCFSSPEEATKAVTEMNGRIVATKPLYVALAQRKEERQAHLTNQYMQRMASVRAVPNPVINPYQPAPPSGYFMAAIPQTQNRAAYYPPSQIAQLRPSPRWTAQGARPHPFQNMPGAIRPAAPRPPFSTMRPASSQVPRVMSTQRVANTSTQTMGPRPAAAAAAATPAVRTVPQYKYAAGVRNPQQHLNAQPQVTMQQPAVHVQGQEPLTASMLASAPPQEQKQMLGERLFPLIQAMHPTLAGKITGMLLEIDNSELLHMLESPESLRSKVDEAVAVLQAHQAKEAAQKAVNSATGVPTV
eIF4H FP inh: human eIF4H binding inhibitors, primary screen, translation initiation inhibitor project, biochemical, uHTS, fluorescence polarization | Eukaryotic translation initiation factor 4H (Homo sapiens), Q15056 | eIF4H fluorescence polarization binding assay | inhibition, % at 35 µM | 290,000 tested, 0.94% active | AID 2012, 2009;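 active means 50% or more with normal probe brightness, or confirmed in later tests; about a fifth of its hits are not listed in these tables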;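 further: calls also rest on retests at 20 µM and on dose response follow-up; 0% = protein and probe with vehicle and 100% = probe without protein; strong numbers were not always called active; many hits fall short of the cut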
MT1-MMP act inh: blockers of MT1-MMP proenzyme processing, primary screen, HT1080 RFP-PRO-GFP cells, GFP/RFP fluorescence; Matrix metalloproteinase-14 (Homo sapiens), P50281; GFP/RFP ratio change, % at 20 µM; 360,000 tested, 0.061% active; GFP/RFP ratio fluorescence, overnight; percent of plate control window, DMSO zero;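 active means GFP/RFP ratio change of at least 30% with cell ATP level not reduced by more than half and red fluorescence within 50% of control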; further: strong numbers were not always called active
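Test system: HT1080 cells expressing an RFP-PRO-GFP fluorescent reporter construct / Compound dosing: single-point 20 µM compound, 1% DMSO / Schedule: cells overnight before dosing, compound overnight, 37 °C, 5% CO2 / Evaluation: GFP/RFP fluorescence ratio / Control set: DMSO and RFP-L50D-GFP cell wells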
Rce1 inh: yeast Rce1p protease inhibitors, primary screen, biochemical, fluorescence, cell-free homogeneous; CAAX prenyl protease 2 (Saccharomyces cerevisiae (strain ATCC 204508 / S288c)), Q03530; yeast membranes, quenched prenylated peptide cleavage fluorescence; calls only; 290,000 tested, 0.27% active; AID 2563, 2010;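 active means fall in fluorescence gain of 50% or more versus controls, with final raw signal at or below 3038400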;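 further: plate controls were neutral control wells for no effect and wells lacking membranes for full effect; tested at 10 µM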
Target sequence (Q03530 whole entry, looked up): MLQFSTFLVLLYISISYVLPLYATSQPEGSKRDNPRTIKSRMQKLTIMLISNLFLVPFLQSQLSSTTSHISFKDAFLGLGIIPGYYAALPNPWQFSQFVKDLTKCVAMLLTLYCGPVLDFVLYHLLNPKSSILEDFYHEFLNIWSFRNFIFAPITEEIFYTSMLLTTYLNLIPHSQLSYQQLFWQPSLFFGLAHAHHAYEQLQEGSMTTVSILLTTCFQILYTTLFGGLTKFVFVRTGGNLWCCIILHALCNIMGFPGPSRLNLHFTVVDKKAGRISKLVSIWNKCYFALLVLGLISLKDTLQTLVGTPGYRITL
Env fusion inh: inhibitors of HIV-1 Env-driven cell-cell fusion, primary screen, HeLa-JRFL effector, CEM21 target cells, luciferase | inhibition, % at 12.3 µM | 360,000 tested, 1.1% active | AID 651610, 2012;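 active means mean replicate inhibition score of at least 50 and every replicate individually at or above 50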;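 further: 0% = plate neutral controls and 100% = maraviroc near 300 nM; one replicate is shown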
CSC inhib: cancer stem cell viability inhibitors, primary screen, luminescence; cancer stem cell-like cells viability; inhibition, % at 7.5 µM; 300,000 tested, 1.1% active;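 active means mean at 75% or more and at least half the replicates too; tested in HMLE shEcad cells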;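 further: 0% = median of negative and 100% = median of positive control wells; the first replicate is given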
UUG fidelity: modulators of yeast start codon fidelity, primary screen, whole organism, S. cerevisiae, single point, plate reader | S. cerevisiae UUG-firefly luciferase reporter, luminescence/redox ratio | activity score, % at 18.7 µM | 350,000 tested, 0.13% active | AID 602363, 2012;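 active means replicate mean at a twofold rise or more, about +100% in these data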;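 further: firefly luciferase made from a UUG start codon reports start codon fidelity; reporter light over untreated wells divided by growth signal over untreated wells; some hits fall short of that in this replicate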
MT1-MMP act inh RFP: also measured in MT1-MMP act inh; calls as there; RFP signal change, %; measured here: RFP expression control read;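 0 = vehicle wells; hits needed this value within 50% of zero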
The depositor's hits bear a star. Rows are unselected. About 2.9% of those tested had a hit in this group.

A first look:
Screening Cc1coc2c1C(=O)C(=O)c1c-2ccc2c(C)cccc12 returned PABP FP inh 79*, eIF4H FP inh 78*, MT1-MMP act inh 10, Rce1 inh inactive, CSC inhib 15, UUG fidelity -20 and MT1-MMP act inh RFP 6.
COc1cc(OC)nc(NC(=O)COC(=O)c2cccc(Cl)c2)n1 was read as PABP FP inh -5, eIF4H FP inh -3, MT1-MMP act inh 4, Rce1 inh inactive, Env fusion inh 18, CSC inhib 2 and MT1-MMP act inh RFP 1.

Main list, from the first entry:
Screening Cc1coc2c1C(=O)C(=O)c1c-2ccc2c(C)cccc12 returned PABP FP inh 79*, eIF4H FP inh 78*, MT1-MMP act inh 10, Rce1 inh inactive, CSC inhib 15, UUG fidelity -20 and MT1-MMP act inh RFP 6.
COc1cc(OC)nc(NC(=O)COC(=O)c2cccc(Cl)c2)n1 was read as PABP FP inh -5, eIF4H FP inh -3, MT1-MMP act inh 4, Rce1 inh inactive, Env fusion inh 18, CSC inhib 2 and MT1-MMP act inh RFP 1.
`Cc1nc(SCC(=O)N(CC(C)C)C2CCS(=O)(=O)C2)c2c(C)c(C)sc2n1` (configuration not stated) gave MT1-MMP act inh -1, Env fusion inh 1, UUG fidelity 2 and MT1-MMP act inh RFP -7.
Screening Cc1cn2c(-c3ccncc3)nnc2s1 returned PABP FP inh -10, eIF4H FP inh -11, MT1-MMP act inh -4, Rce1 inh inactive, Env fusion inh -36, CSC inhib -3, UUG fidelity -29 and MT1-MMP act inh RFP -1.
`Cc1ccc(CNC(=O)CCn2nc(-c3ccc(Cl)cc3)ccc2=O)cc1` gave PABP FP inh -15, eIF4H FP inh -1, MT1-MMP act inh 5, Rce1 inh inactive, CSC inhib -6, UUG fidelity -8 and MT1-MMP act inh RFP -1.
For O=C(COc1ccc(F)cc1)Nc1nnc(S(=O)(=O)N2CCCC2)s1 the results were PABP FP inh -10, eIF4H FP inh 1, MT1-MMP act inh 6, Rce1 inh inactive, Env fusion inh 36, CSC inhib 1, UUG fidelity -14 and MT1-MMP act inh RFP 2.
For CN(C)S(=O)(=O)N(CC(=O)Nc1ccc(S(=O)(=O)N2CCCC2)cc1)c1ccccc1 the results were PABP FP inh -3, eIF4H FP inh -11, MT1-MMP act inh 1, Rce1 inh inactive, Env fusion inh -183, CSC inhib -9, UUG fidelity -4 and MT1-MMP act inh RFP 3.
`O=C(O)C1C2C=CC(C2)C1C(=O)NCc1cccs1` (configuration not stated) gave PABP FP inh 1, eIF4H FP inh 8, MT1-MMP act inh -2, Rce1 inh inactive, Env fusion inh -17, CSC inhib -10, UUG fidelity -6 and MT1-MMP act inh RFP 1.
For O=C(NCCCN1CCCC1=O)C1CCCO1 (configuration not stated) the results were PABP FP inh -14, eIF4H FP inh 2, MT1-MMP act inh 6, Rce1 inh inactive, Env fusion inh -6, UUG fidelity -11 and MT1-MMP act inh RFP 4.
Screening COc1cc2c(cc1NC(=O)CSc1cccc[n+]1[O-])oc1ccccc12 returned PABP FP inh 3, eIF4H FP inh 1, MT1-MMP act inh 5, Rce1 inh inactive, Env fusion inh 13, CSC inhib 5 and MT1-MMP act inh RFP 4.
Screening Cc1ccc(Nc2nnc(SC/C(O)=C(\C#N)c3nc4ccccc4[nH]3)s2)c(C)c1 returned PABP FP inh 5, eIF4H FP inh 34, MT1-MMP act inh -25, Rce1 inh inactive, Env fusion inh -56, CSC inhib 1, UUG fidelity -8 and MT1-MMP act inh RFP 2.
`COc1ccc(C(=O)OCC(=O)NC(=O)NC2CCCC2)c(O)c1` gave PABP FP inh 4, eIF4H FP inh -9, MT1-MMP act inh 3, Rce1 inh inactive, Env fusion inh -4, CSC inhib -18 and MT1-MMP act inh RFP 7.
For Cc1ccc(S(=O)(=O)n2cccc2C)cc1 the results were MT1-MMP act inh 1, Rce1 inh inactive, Env fusion inh 4, CSC inhib -15, UUG fidelity 54 and MT1-MMP act inh RFP 2.
Cc1ccc(C(=O)OCC(=O)NNC(=O)c2cccs2)c(O)c1 was read as MT1-MMP act inh -3, Rce1 inh inactive, CSC inhib 0, UUG fidelity -20 and MT1-MMP act inh RFP 0.
For CCCn1nnnc1NCc1ccc(Cl)cc1Cl the results were PABP FP inh -5, eIF4H FP inh -10, MT1-MMP act inh -1, Rce1 inh inactive, Env fusion inh 7, UUG fidelity -9 and MT1-MMP act inh RFP -1.
`O=C(NCC(=O)N(Cc1cccs1)C(C(=O)NC1CCCCC1)c1ccco1)c1cccs1` (configuration not stated) gave PABP FP inh -2, eIF4H FP inh -2, MT1-MMP act inh -5, Rce1 inh inactive, Env fusion inh -145, CSC inhib 9, UUG fidelity 6 and MT1-MMP act inh RFP -2.
Screening COc1ccc(/C=N/NC(=O)c2[nH]c3ccc(C)cc3c2-c2ccccc2)c(C(=O)O)c1OC returned PABP FP inh 5, eIF4H FP inh -1, MT1-MMP act inh -4, Rce1 inh active, Env fusion inh -3, CSC inhib 3, UUG fidelity -13 and MT1-MMP act inh RFP 3.
`CCCCc1nnc(SCc2ccc(OCC)cc2)n1N` gave PABP FP inh 0, eIF4H FP inh 2, MT1-MMP act inh 3, Rce1 inh inactive, Env fusion inh -5, CSC inhib -10, UUG fidelity -22 and MT1-MMP act inh RFP -2.
Screening O=C(CSc1nnc2c(n1)[nH]c1ccc(F)cc12)OCc1ccccc1 returned PABP FP inh -8, eIF4H FP inh -9, MT1-MMP act inh 7, Rce1 inh inactive, Env fusion inh -65, CSC inhib -15, UUG fidelity -2 and MT1-MMP act inh RFP 2.
CCCc1nc(SC2CCCC2)c2c(=O)n(C)c(=O)n(C)c2n1 was read as PABP FP inh -6, eIF4H FP inh -12, MT1-MMP act inh -4, Rce1 inh inactive, Env fusion inh 1, CSC inhib 16, UUG fidelity 1 and MT1-MMP act inh RFP -7.
O=C(Nc1ccccc1)c1ccc(OC(=O)c2ccccc2)cc1 was read as PABP FP inh -9, eIF4H FP inh 1, MT1-MMP act inh 1, Rce1 inh inactive, Env fusion inh -29, CSC inhib 1, UUG fidelity 1 and MT1-MMP act inh RFP 6.
Screening O=C(CN1C(=O)S/C(=C/c2cc(Br)cs2)C1=O)N1CCOCC1 returned PABP FP inh -2, eIF4H FP inh -7, MT1-MMP act inh 6, Rce1 inh inactive, Env fusion inh -9, CSC inhib -17 and MT1-MMP act inh RFP 2.
For CCOC(=O)c1sc(NC(=O)CCN2CC(C)OC(C)C2)c(C(=O)OCC)c1C (configuration not stated) the results were PABP FP inh -6, eIF4H FP inh 3, Rce1 inh inactive and CSC inhib -12.
Nc1nncn1C(=O)c1ccccc1Cl was read as PABP FP inh 5, eIF4H FP inh -1, MT1-MMP act inh 3, Rce1 inh inactive, CSC inhib 4, UUG fidelity -22 and MT1-MMP act inh RFP 3.
CCc1nnc(NS(=O)(=O)c2ccc(NC(=S)NC(=O)/C=C/c3ccc([N+](=O)[O-])cc3)cc2)s1 was read as PABP FP inh 4, eIF4H FP inh -4, MT1-MMP act inh 2, Rce1 inh inactive, Env fusion inh -20, CSC inhib 4, UUG fidelity 9 and MT1-MMP act inh RFP 2.
`c1ccc2c(C3=NNC(=NC4CCCCC4)SC3)c[nH]c2c1` gave PABP FP inh -6, eIF4H FP inh -12, MT1-MMP act inh 0, Rce1 inh inactive, Env fusion inh 10, CSC inhib 1 and MT1-MMP act inh RFP 0.
Cc1cccc(OCC(=O)Nc2ccc(N3CCN(S(C)(=O)=O)CC3)cc2)c1 was read as PABP FP inh -6, eIF4H FP inh -9, MT1-MMP act inh 1, Rce1 inh inactive, Env fusion inh -40, CSC inhib -9, UUG fidelity -14 and MT1-MMP act inh RFP 2.
Screening O=C(CNC1CCCCC1)Nc1ccc(S(=O)(=O)N2CCCCC2)cc1 returned PABP FP inh 2, eIF4H FP inh -8, MT1-MMP act inh -4, Rce1 inh inactive, Env fusion inh 7, CSC inhib 19, UUG fidelity -5 and MT1-MMP act inh RFP 2.
For CC(NC(=O)C1CCN(S(=O)(=O)c2cccc3nonc23)CC1)c1ccccc1 (configuration not stated) the results were PABP FP inh -3, eIF4H FP inh -6, MT1-MMP act inh 3, Rce1 inh inactive, Env fusion inh -29, CSC inhib -6, UUG fidelity -1 and MT1-MMP act inh RFP 1.
C/C(=N\O)C(=O)Nc1ccccc1 was read as PABP FP inh 1, eIF4H FP inh -3, MT1-MMP act inh -2, Rce1 inh inactive, Env fusion inh -3, CSC inhib -2 and MT1-MMP act inh RFP 2.
For O=C(Cn1ccc2ccccc2c1=O)NCCC(=O)N1CCN(c2ccccc2)CC1 the results were PABP FP inh 0, eIF4H FP inh 1, MT1-MMP act inh 1, Env fusion inh -9, CSC inhib -15, UUG fidelity -11 and MT1-MMP act inh RFP -1.
For COc1ccc(S(=O)(=O)N2CCCC2c2cccs2)cc1 (configuration not stated) the results were PABP FP inh -2, eIF4H FP inh -1, MT1-MMP act inh 1, Rce1 inh inactive, Env fusion inh 10, CSC inhib 5 and MT1-MMP act inh RFP -7.
`COC(=O)c1c(NC(NC(C)=O)C(Cl)(Cl)Cl)sc2c1CCCC2` (configuration not stated) gave PABP FP inh -2, eIF4H FP inh -3, MT1-MMP act inh 2, Rce1 inh inactive, Env fusion inh 18, CSC inhib -9 and MT1-MMP act inh RFP -8.
Cn1cc(CCNC(=O)CC2C(=O)NCCN2Cc2cccc(Oc3ccccc3)c2)cn1 (configuration not stated) was read as PABP FP inh 11, eIF4H FP inh 8, MT1-MMP act inh -1, Rce1 inh inactive, Env fusion inh 7, CSC inhib -12 and MT1-MMP act inh RFP 3.
Screening COCCn1c(SCC(=O)Nc2ccc(C)cc2C)nc2c(oc3ccccc32)c1=O returned PABP FP inh 8, eIF4H FP inh 11, MT1-MMP act inh -5, Rce1 inh inactive, Env fusion inh 17, CSC inhib 10, UUG fidelity -3 and MT1-MMP act inh RFP -5.
`CCc1ccc2c(c1)C(=O)C(=O)N2CCS(=O)(=O)c1ccccc1` gave PABP FP inh -10, eIF4H FP inh 2, MT1-MMP act inh 1, Rce1 inh inactive, Env fusion inh -1, CSC inhib 12, UUG fidelity -17 and MT1-MMP act inh RFP 11.
Screening COC(=O)c1cccc(C(=O)N2CCCC(C(=O)c3ccccc3OC)C2)c1 (configuration not stated) returned PABP FP inh 9, eIF4H FP inh -2, MT1-MMP act inh -6, Rce1 inh inactive, Env fusion inh 15, CSC inhib 22, UUG fidelity -2 and MT1-MMP act inh RFP -1.
Screening CCC1CN(C(=O)N2CCC(C(=O)NCc3ccccc3OC)CC2)c2cc(C)ccc2O1 (configuration not stated) returned PABP FP inh -7, eIF4H FP inh -7, MT1-MMP act inh -2, Rce1 inh inactive, Env fusion inh 10, CSC inhib -17, UUG fidelity -4 and MT1-MMP act inh RFP -8.
`O=C(CSc1ccc2nnc(CCNC(=O)c3ccccc3)n2n1)Nc1ccccc1` gave PABP FP inh 10, eIF4H FP inh -13, MT1-MMP act inh -5, Rce1 inh inactive, Env fusion inh -10, CSC inhib -3, UUG fidelity 55 and MT1-MMP act inh RFP 5.
`CCN(CC)CC(=O)c1c[nH]c2ccccc12` gave PABP FP inh 6, eIF4H FP inh -14, MT1-MMP act inh 0, Rce1 inh inactive, CSC inhib 2, UUG fidelity 4 and MT1-MMP act inh RFP 10.
Screening CC(=O)C1CCC2C3CCC4CC(OC(=O)CCC(=O)O)CCC4(C)C3C(=O)CC12C (configuration not stated) returned MT1-MMP act inh -2, Env fusion inh 0, UUG fidelity 26 and MT1-MMP act inh RFP 7.
Screening CCCCc1ccc(NC(=O)OC)cc1 returned PABP FP inh 4, eIF4H FP inh 4, MT1-MMP act inh 3, Rce1 inh inactive, UUG fidelity -4 and MT1-MMP act inh RFP 2.
